HCMV UL50-53 inh – cytomegalovirus nuclear egress complex inhibition; HTRF UL50-UL53 interaction, normalized percent inhibition; inhibition, % (concentration not given with the values); AID 1918969; 190,000 tested, 0.15% active;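 active = both replicates at 50% or more, plus weaker picks with an unusually low signal ratio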;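 also: stock transfer was 100 nL into about 20 µL; 0% = negative control wells and 100% = wells with untagged competitor protein; inactives centre near -12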
GIV Gai3 FP – GIV-Galpha-i interaction inhibition | P08753 | Galpha-i3/FITC-GIV peptide fluorescence polarization, 90 min; hits give low values; scaled: aluminum fluoride 0%, vehicle 100% | percent of control (FP), % (no concentration beside the values) | 210,000 tested, 0.42% active | AID 1224905;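 active = replicate mean at 85% of control or lower, very high polarization wells dropped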;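 also: wells of about 15 µL received 100 nL stock; the first replicate is given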
Target sequence (P08753 whole entry, looked up): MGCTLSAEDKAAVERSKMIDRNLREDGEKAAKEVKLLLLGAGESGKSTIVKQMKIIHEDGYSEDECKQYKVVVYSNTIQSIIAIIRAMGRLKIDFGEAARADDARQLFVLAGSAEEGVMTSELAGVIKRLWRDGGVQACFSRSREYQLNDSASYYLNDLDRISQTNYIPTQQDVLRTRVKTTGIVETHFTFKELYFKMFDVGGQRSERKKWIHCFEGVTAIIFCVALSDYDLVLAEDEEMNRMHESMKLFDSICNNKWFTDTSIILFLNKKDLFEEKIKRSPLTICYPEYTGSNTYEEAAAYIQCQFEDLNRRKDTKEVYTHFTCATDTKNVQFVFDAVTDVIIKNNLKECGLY
Sa growth 42C – S. aureus growth inhibition | S. aureus RN4220 growth, OD600, 20 h, 42 °C; hits give low values | relative growth, % (concentration not given with the values) | 170,000 tested, 0.53% active | AID 720641;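 active = growth at 42 °C up to 50% and 20 or more points under that at 30 °C, or under 10% at both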;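 also: 300 nL library stock went into each well; scaled to the means of positive and negative controls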
Sa growth 42C second temp – second read-out of Sa growth 42C, no call of its own (marks repeat the call); relative growth, %; measured here: growth at 30 °C;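 optical density after 20 h as mean of two plates; 100% = untreated growth and lower means inhibition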
* marks the source's active call; other numbers are inactive results; . = not tested or not shown; & = joins results of further samples.

Every second line gives: HCMV UL50-53 inh, GIV Gai3 FP, Sa growth 42C, Sa growth 42C second temp
CCn1cc(C(=O)NCC(OC)OC)c(=O)c2cc(S(=O)(=O)N3CC(C)CC(C)C3)ccc21 (stereo not given)
  1, 110, 102, 99
CCc1cnc2c(c1SCC(=O)c1ccc(OC)cc1)c(=O)n(C)c(=O)n2C
  ., 102, 137, 87
CCc1cccc(C)c1NC(=O)C(C)Sc1nc2c(c(=O)[nH]1)CCCC2 (stereo not given)
  -2&-22, 108&100, 86, 96
O=c1/c(=C\c2ccncc2)sc2nc3ccccc3n12
  -31, ., 110, 82
CCCC(=O)N1CC(=O)Nc2ccc(C)cc2C1c1ccccc1 (stereo not given)
  ., 102, 112, 87
CC1CCN(C(=O)c2cnc3sccn3c2=O)CC1
  6, 104, ., .
O=C(CCNC(=O)c1ccco1)Nc1ccccc1
  -7, ., 84, 82
CCOC(=O)C1=C(C)N=c2s/c(=C\c3c[nH]c4ccccc34)c(=O)n2C1c1cc(Br)c(OC)cc1OC (stereo not given)
  -28, 102, ., .
COC(CNC(=O)c1csc2c1CCCCC2)OC
  -1, 104, 101, 93
Cc1ccc(C(=O)N(CC#N)CC#N)cc1
  -15, 92, 106, 86
O=C(c1ccccc1F)N1CCC(c2nc(-c3ccc(S(=O)(=O)N4CCCC4)cc3)no2)CC1
  -12, 97, ., .
CCC(=O)Nc1ccc(-c2nc3ccc(NC(=O)CC)cc3[nH]2)cc1
  -22, 101, 119, 97
Cc1ccc(OCC(=O)NCCc2sc(-c3ccc(Cl)cc3)nc2C)cc1
  -9, 102, ., .
O=C(NC(=O)c1ccccc1)Oc1ccc(F)cc1
  -6, 99, 115, 74
CCOC(=O)C1=C(C)Nc2ccccc2N=C1NC(=O)Cn1c(=O)oc2ccccc21
  -5, ., 83, 94

Sorted by the number under Sa growth 42C second temp (largest number first): four of the compounds above
SMILES | Sa growth 42C second temp
CCn1cc(C(=O)NCC(OC)OC)c(=O)c2cc(S(=O)(=O)N3CC(C)CC(C)C3)ccc21 (stereo not given) | 99
CCC(=O)Nc1ccc(-c2nc3ccc(NC(=O)CC)cc3[nH]2)cc1 | 97
COC(CNC(=O)c1csc2c1CCCCC2)OC | 93
CCCC(=O)N1CC(=O)Nc2ccc(C)cc2C1c1ccccc1 (stereo not given) | 87

Next section:
Every second line gives: HCMV UL50-53 inh, GIV Gai3 FP, Sa growth 42C, Sa growth 42C second temp
O=C(NCCCN1CCN(c2ccccc2F)CC1)C1COc2ccccc2C1 (stereo not given)
  ., 103, 95, 94
CC(C)Cn1nnc2c(=O)oc3ccccc3c21
  -6, 106, 122, 85
Cc1ccc(NC(=O)c2nc3cc(C)c(C)cc3n(C)c2=O)cc1C
  -22, 101, ., .
Cc1ccccc1NC1C=CS(=O)(=O)C1 (stereo not given)
  -8, ., 69, 88
O=c1cc(C(F)(F)F)[nH]c2n[nH]c(-c3cccs3)c12
  -14, 103, 67, 59
N/C(CN1CCSCC1)=N\O
  -4, 109, 97, 78
COc1ccc(-c2cc3c(=O)n(CC(=O)NC4CCC(C)CC4)ncn3n2)cc1 (stereo not given)
  ., 105, 115, 92
c1ccc(-c2ccc(SCc3nc(-c4ccc5c(c4)OCO5)no3)nn2)cc1
  -14, 102, ., .
CCOc1cc(C(=O)Nc2ccc(-c3nnc4n3CCCCC4)cc2)cc(OCC)c1OCC
  ., 102, 113, 91
CCOC(=O)c1cn[nH]c1S(=O)(=O)N1CCc2ccccc21
  -1, 100, ., .
COc1ccc(N2C(=O)c3cccnc3C2=O)cc1
  9, 110, ., .
Cc1c(Sc2nc3ccccc3s2)c(=O)[nH]c2cc3c(cc12)OCO3
  -2, 100, 94, 91
CC(c1ccccc1F)n1cc(C(=O)NCCCn2ccnc2)nn1 (stereo not given)
  -6, 108, 104, 72
c1csc(-c2csc3nc(CN4CCOCC4)nc(Sc4ncn[nH]4)c23)c1
  -19, ., 77, 92
COc1ccc(NC(=O)c2nnn(Cc3nc(-c4cc(OC)c(OC)c(OC)c4)oc3C)c2C)cc1Cl
  12, 108, 94, 103

Carrying on.
Every second line gives: HCMV UL50-53 inh, GIV Gai3 FP, Sa growth 42C, Sa growth 42C second temp
Cc1ccc(CSC2=Nc3ccccc3C3=NC(CC(=O)NC4CCCCC4)C(=O)N23)c(C)c1 (stereo not given)
  ., 102, 102, 101
Cc1ccc(C(C)C)c(OC(C)C(=O)NCC2(N(C)C)CCCCC2)c1 (stereo not given)
  4, 107, 91, 93
CC(C)c1ccc(OCC(=O)Nc2c(C(=O)c3ccc(F)cc3)oc3ccccc23)cc1
  -11, 98, 92, 89
NC(=O)CCN1CCN(S(=O)(=O)/C=C/c2ccccc2)CC1
  1, ., 99, 90
COc1ccc(Nc2nc(N)nc(CSc3nnc4sc5ccccc5n34)n2)cc1
  -24, 103, ., .
C=CCN1c2ccccc2NC(=O)C1CC(=O)Nc1ccc(C)cc1 (stereo not given)
  -24, ., 88, 98
CCC(=O)Nc1nc2cc(NC(=O)CCc3nc(-c4ccc(C)cc4)no3)ccc2s1
  -6, 104, ., .
Cc1noc2ncnc(N3CCC(C(=O)NCc4cccnc4)CC3)c12
  -2, 102, ., .
COc1ccc(CC(=O)NCC(c2cccs2)S(=O)(=O)c2ccc(F)cc2)cc1 (stereo not given)
  ., 102, 94, 90
CN(CC(=O)NC1CCCCC1)c1nnc(N2CCCC2=O)s1
  ., 98, 102, 95
COc1ccc(-c2noc(CN(C(=O)NC3CCCCC3)C(C)C)n2)cc1OC
  ., 105, 108, 99
CCN1C(=O)CSC1=Nc1ccccc1Cl
  -3, 105, 102, 91
COC(=O)c1ccc(/C=N/OCC(=O)Nc2ccc3c(c2)OCCO3)cc1
  -23, ., 98, 84
Clc1ccc(N2CCN(Cc3cc4ccccn4n3)CC2)cc1
  -18, 99, ., .
CC(C)CCNc1cc(-c2ccccc2)nc2nncn12
  -3, 104, 110, 82

The listing continues:
Every second line gives: HCMV UL50-53 inh, GIV Gai3 FP, Sa growth 42C, Sa growth 42C second temp
Cc1ccc(OCC(=O)Nc2ccccc2SCc2cc(=O)n3c(ncn3C(C)C)n2)c(C)c1
  11, 105, ., .
COc1cc(CN(C(=O)COc2ccc(Br)cc2)c2ccccn2)cc(OC)c1OC
  -14, 104, 102, 82
COc1cc(/C=C/C(=O)O)cc(S(=O)(=O)N2CCc3ccccc32)c1OC
  -38, 98, 95, 81
CCN(CC)Cc1nonc1C
  2, 100, 100, 96
O=C(Nc1ccc(F)c(Cl)c1)C1CCN(C(=O)c2ccc(F)cc2)CC1
  -21, 107, 103, 85
Cc1ccccc1OCC(=O)Nc1sc2c(c1C(=O)OC(C)C)CCCC2
  -49, 104, 95, 82
Cc1ccc(C(C(=O)NC2CCCCC2)N(C)C)cc1 (stereo not given)
  -34, 103, 84, 92
Cc1nc2ccccc2c2c1C(=O)N(c1ccc(C(=O)O)cc1)C2=O
  -17, 100, ., .
COc1ccc(-c2cc(=O)[nH]c(SCc3nc(-c4ccc(OC(C)C)cc4)oc3C)n2)cc1
  -30, 106, ., .
O=C1NC(=O)N(c2ccc(Br)cc2)C(=O)/C1=C/c1ccc(N2CCOCC2)o1
  -113, 16*, ., .
COc1ccc(CN(C)c2ccc(-c3nc(C)no3)cc2[N+](=O)[O-])cc1
  -28, 98, 86, 85
COc1cc(/C=C/C(=O)O)cc(Cl)c1O
  -27, ., 91, 90
C[n+]1ccc(/C=C\c2ccco2)c2ccccc21
  ., 214, 3.2*, 7.0*
CC(=O)N1CCN(S(=O)(=O)c2cccc(C(=O)NCCc3ccccn3)c2)CC1
  -14, ., 84, 88
CCc1ccc(NC(=O)c2cnc(Nc3ccc(OC)cc3)c3ccccc23)cc1
  ., 101, 85, 93

(cont.)
canonical_smiles	HCMV UL50-53 inh	GIV Gai3 FP	Sa growth 42C	Sa growth 42C second temp
O=C(Nc1ccc(F)cc1OC(F)(F)F)N1CCC(O)CC1	-10	106	99	94
CCn1c(CCNC(=O)c2ccccc2)nc2ccccc21	2	107	100	89
COC(=O)c1sc2nc(-c3ccccc3)cc(-c3ccccc3)c2c1N	-4	.	99	83
O=S(=O)(Nc1ccc(Cn2cnc(-c3nc(-c4ccc(F)cc4)no3)c2)cc1)c1cccc(Cl)c1	-23	104	.	.
COc1ccc(Cc2nnc3sc(-c4c[nH]c5ccccc45)nn23)cc1OC	-21	103	.	.
Cc1ccc(C)c(Nc2nc3c(S(=O)(=O)c4ccc(C(C)C)cc4)nnn3c3ccsc23)c1	.	101	98	64
N#Cc1c(N2CCCCCC2)ncc2cc3ccccc3nc12	-57	-18*	91	80
O=C(c1ccc2c(c1)OCO2)N1CCC(c2nc(-c3ccc(Cl)cc3)no2)CC1	-2	97	.	.

Next section.
canonical_smiles	HCMV UL50-53 inh	GIV Gai3 FP	Sa growth 42C	Sa growth 42C second temp
CCC(=O)OCC(=O)Nc1cccc2ccccc12	-24	.	91	100
Cc1ccc2onc(CNC(=O)Nc3ccccc3C)c2c1	-9	101	96	87
CC(NC(=O)OCc1ccccc1)C(=O)Oc1ccc2c(=O)c(-c3ccc(F)cc3)coc2c1 (stereo not given)	-2	.	103	79
CC(C)c1nc(CNC(=O)c2ccc(Cl)cc2)no1	-7	103	.	.
Cc1ccc2[nH]c(-c3ccccc3)c(CN3CCCC(C)C3)c(=O)c2c1 (stereo not given)	-22	102	94	87
CCC(CC)C(=O)NCCc1ccc(OC)c(OC)c1	-2	96	83	68
CCc1ccc(NS(=O)(=O)c2ccc3[nH]cc(C(=O)N4CCCCCC4)c(=O)c3c2)cc1	-13	104	96	82
CCOc1ccc(C2C3=C(CC(c4ccc(OC)cc4)CC3=O)Nc3onc(C)c32)cc1 (stereo not given)	-15	101	.	.

Further results follow:
canonical_smiles	HCMV UL50-53 inh	GIV Gai3 FP	Sa growth 42C	Sa growth 42C second temp
Cc1cc2n(n1)CCCN2C(=O)CCC(=O)Nc1ccc(F)cc1F	-3	105	.	.
O=C1C2=C(Nc3ccccc3SC2c2ccc(O)cc2)c2ccccc21 (stereo not given)	-4	101&99	157&128	94&71
CCCN1CCN(CC2=C(C(=O)OCC)C(c3ccc(Cl)cc3)NC(=O)N2)CC1 (stereo not given)	0	110	100	90
CSc1nnc2n(/N=C/c3cc4c(cc3Br)OCO4)cnn12	-9	.	120	83
S=C(NCC1CCCO1)NC1CCCCC1 (stereo not given)	-4	.	108	91
Cc1cccc(C(=O)NC2=NCC(C)S2)c1 (stereo not given)	12	.	108	99
O=C(Cc1noc2ccccc12)Nc1ccccc1F	-13	108	.	.
CCOC(=O)c1nc(COc2ccccc2Cl)no1	-6	100	105	90

Carrying on:
canonical_smiles	HCMV UL50-53 inh	GIV Gai3 FP	Sa growth 42C	Sa growth 42C second temp
CCOC(=O)c1c(C)[nH]c(CCC(=O)Nc2cc(C)cc(C)c2)c1C	.	109	93	97
CCCCN1CCc2nc(N3CCN(C)CC3)ncc2C1	.	104	108	96
COCCCNC(=O)CSc1nc(-c2ccccc2)[nH]c1-c1ccc(C)cc1	-5	99	102	87
O=C(CN(Cc1ccccc1)S(=O)(=O)c1ccc(Cl)cc1)N1CCN(c2ccccc2F)CC1	-17	103	.	.
OCCN(Cc1ccccc1)c1ncnc2c1oc1ccccc12	-1	.	108	86
NC(=O)COC(=O)c1c2c(nc3ccccc13)CCC2	-47	.	102	81
Cc1cc(C(=O)Oc2ccc3c(c2)OCO3)c(C)s1	-11	.	129	96
O=S(=O)(c1ccc(Cc2ccc(S(=O)(=O)N3CCC4(CC3)OCCO4)cc2)cc1)N1CCC2(CC1)OCCO2	-19	101	96	85

Going on with the list:
canonical_smiles	HCMV UL50-53 inh	GIV Gai3 FP	Sa growth 42C	Sa growth 42C second temp
Cc1c(C(=O)C(C#N)c2nc3ccccc3[nH]2)oc2c(Cl)cccc12 (stereo not given)	-10	.	69	99
CS(=O)(=O)c1ccc2nc(NC(=O)COc3ccc(Oc4ccccc4)cc3)sc2c1	-16	103	.	.
COc1ccc(N(C)C(=O)CCn2cnc3onc(-c4ccc(F)cc4)c3c2=O)c(OC)c1	.	106	126	91
CCCCN1C(=O)CC(NNCc2ccccc2)C1=O (stereo not given)	0	97	97	90
O=C(CN1C(=O)C2CC=CCC2C1=O)NC1=NCCS1 (stereo not given)	-7	.	91	92
COc1cc(NC(=O)c2nc(-c3ccc(Cl)cc3)n3c2CCCCC3)cc(OC)c1OC	.	111	130	91
COCCNC(=O)N1c2ccccc2Sc2ccccc21	-4	105	125	100
COc1ccc(CNC(=O)c2cc3c(=O)n(Cc4ccc(OC)cc4)ccc3nc2C)cc1	.	98	90	91

(cont.)
canonical_smiles	HCMV UL50-53 inh	GIV Gai3 FP	Sa growth 42C	Sa growth 42C second temp
CC(C)(C)NS(=O)(=O)Cc1ccccc1Cl	-4	105	102	103
CC1CCN(Cc2cc(=O)n3[nH]c(NCc4ccc(C(C)C)cc4)nc3n2)CC1	8	100	.	.
Cc1cccc(N2COc3cc(C)c(Cl)c(C)c3C2)c1	-14	99	101	89
Cc1ccccc1NC(=O)CCc1c(C)nc2cc(-c3ccccc3)nn2c1C	3	103	108	86
CC1CCN(S(=O)(=O)c2ccc3c(ccc(=O)n3CC(=O)Nc3cccc(F)c3)c2)CC1	.	102	116	100
O=C(NCC1CCNCC1)c1ccc(/C=N/O)nc1	-8	108	97	89
Cc1cc(NC(=O)C2CC(c3ccc(Cl)cc3)=NO2)no1 (stereo not given)	.	102	101	85
Cc1csc2nc(COC(=O)c3ccc4c(c3)NC(=O)C3CCCN43)cc(=O)n12 (stereo not given)	-5	.	70	61

Source: PubChem (ICCB-Longwood Screening Facility, Harvard Medical School)
